# Screening data from PubChem.
# KCNQ2 inh – KCNQ2 potassium channel inhibitors, primary screen, cell-based, CHO-K1, FluxOR thallium flux, B-score (AID 2156); Potassium voltage-gated channel subfamily KQT member 2 (Rattus norvegicus), O88943; 20 min; hits give low values; only compounds with negative scores are shown here; some inactives read as strong as hits; B-score at 10 µM; 310,000 compounds, 1.1% hits;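 active means fluorescence ratio B-score at most minus 3 library SDs, with starting brightness B-score within 2 library SDs, cut at about -5.5 in these data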
# Target sequence (O88943 whole entry, looked up): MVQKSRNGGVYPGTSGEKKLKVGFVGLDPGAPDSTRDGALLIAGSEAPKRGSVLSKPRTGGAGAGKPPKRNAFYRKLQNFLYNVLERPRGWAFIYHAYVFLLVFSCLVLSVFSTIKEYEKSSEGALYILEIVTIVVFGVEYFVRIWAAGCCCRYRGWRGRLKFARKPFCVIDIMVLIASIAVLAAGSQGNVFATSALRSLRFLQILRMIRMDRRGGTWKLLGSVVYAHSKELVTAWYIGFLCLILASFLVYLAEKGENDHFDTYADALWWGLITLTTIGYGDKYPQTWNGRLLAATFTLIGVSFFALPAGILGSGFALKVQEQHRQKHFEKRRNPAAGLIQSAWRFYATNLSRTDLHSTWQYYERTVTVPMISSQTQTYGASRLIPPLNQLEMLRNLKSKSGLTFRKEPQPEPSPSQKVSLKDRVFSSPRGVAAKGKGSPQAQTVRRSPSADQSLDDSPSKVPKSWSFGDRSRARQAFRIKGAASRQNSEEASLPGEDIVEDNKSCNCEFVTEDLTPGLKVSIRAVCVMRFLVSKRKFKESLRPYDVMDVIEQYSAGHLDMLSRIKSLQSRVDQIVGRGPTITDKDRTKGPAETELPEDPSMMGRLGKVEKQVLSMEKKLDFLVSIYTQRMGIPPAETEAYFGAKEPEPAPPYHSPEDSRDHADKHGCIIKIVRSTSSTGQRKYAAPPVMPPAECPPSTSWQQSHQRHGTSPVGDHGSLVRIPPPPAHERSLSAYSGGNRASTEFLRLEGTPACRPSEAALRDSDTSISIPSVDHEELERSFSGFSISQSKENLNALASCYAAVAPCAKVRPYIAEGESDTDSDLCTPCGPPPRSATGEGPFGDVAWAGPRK
# KCNQ2 inh baseline – further read-out of KCNQ2 inh, marked with its call; B-score; measured here: initial fluorescence intensity artifact check;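 brightness before thallium and not channel activity; 0 = typical well and far values either way flag optical interference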
# * marks the source's active call; other numbers are inactive results; i = inactive. This is a subset, so the mix of outcomes need not match the whole.
entry	SMILES	KCNQ2 inh	KCNQ2 inh baseline
1	COC(=O)c1ccc(NC(=O)C(C)N2C(=O)c3ccccc3C2=O)cc1 (stereo not given)	i	-0.05
2	CCN1CCN(CCCNC(=O)CN2C(=O)c3cccnc3Oc3ccc(Cl)cc32)CC1	i	1.38
3	COc1cccc(OCc2cc(/C=N/n3cncn3)ccc2OC)c1	i	0.32
4	Cc1cc(NC(=O)CSc2nnc(NCc3ccccc3)s2)no1	i	-0.43
5	COc1cccc(NCc2nnc(SCC(=O)NC3CCS(=O)(=O)C3)n2C2CCCCC2)c1 (stereo not given)	i	0.02
6	Cc1cccc2cc(CN(CC3CCCO3)S(=O)(=O)c3ccccc3)c(=O)[nH]c12 (stereo not given)	i	-0.89
7	O=C(Oc1ccc(=O)n(-c2ccccc2)n1)c1cccc(Cl)c1	i	-0.54
8	O=C(NCC1CCCO1)C1CCCN(S(=O)(=O)c2ccc(F)cc2)C1 (stereo not given)	i	1.28
9	CCC(C)[C@H](NC(=O)C1CC(=O)N(c2ccc(OC)cc2)C1)C(=O)N1CCCCC1 (stereo not given in full)	i	-2.49
10	CCOc1cc(/C=C(/C#N)c2nc3ccccc3[nH]2)ccc1OCc1ccc(C(=O)O)o1	i	-0.05
11	CCOc1ccc2nc(-c3ccccc3)nc(SCC(=O)Nc3ncc(C)s3)c2c1	i	0.18
12	CCN1C(=O)/C(=C\c2cn(CCC#N)nc2-c2ccc(F)cc2)SC1=S	i	-0.47
13	CC(C(=O)Nc1ccc(Cl)cc1)N1C(=O)NC2(CCCC2)C1=O (stereo not given)	i	-0.03
14	CCSc1nnc(Cc2cc(=O)[nH]c(=O)[nH]2)n1-c1cc(C)ccc1C	i	-0.37
15	CN(C)/C=C(\C#N)S(=O)(=O)c1ccc(Cl)cc1	-6.76*	-0.33*
16	Cc1ccc(C)c(OCC(=O)N/N=C\c2cccn2C)c1	i	-1.1
17	Cc1cc(C)n(-c2nc(-c3ccccc3)cs2)n1	i	-0.93
18	Cc1ccc(N(Cc2cc3ccccc3[nH]c2=O)C(=O)c2cccs2)cc1	i	1.46
19	Cc1ccc(S(=O)(=O)Nc2ccc(N3CCN(C)CC3)nc2)cc1	i	-0.57
20	CCOc1ncccc1C(=O)OCC(=O)NCCc1ccc(OC)cc1	i	0.02
21	CC(C)NC(=O)c1cccc(C(F)(F)F)c1	i	-0.55
22	COC(=O)c1cc(=O)n2c(-c3ccc(OC)cc3)csc2n1	i	1.76
23	CS(=O)(=O)N1CCC(C(=O)Nc2ccccc2)CC1	i	6.81
24	Cc1cc(Cl)cc2sc(NC(=O)C3CC3)nc12	i	0.13
25	O=[N+]([O-])c1ccccc1OC/C(=N\O)c1ccccc1	i	2.37
26	CS(=O)(=O)N(CC(=O)N1CCN(Cc2ccc3c(c2)OCO3)CC1)c1ccc2c(c1)OCO2	i	1.71
27	Fc1ccc(-c2noc(-c3ccc4c(c3)CCO4)n2)cc1	i	-0.37
28	COc1ccc(-c2cc(CNS(=O)(=O)c3ccc(NC(C)=O)cc3)on2)cc1	i	0.78
29	O=C(O)CCNC(=O)c1cncc(Br)c1	i	-0.86
30	COc1cccc2cc(-c3ccnc(=S)[nH]3)oc12	i	-1.67

# Ordered by molar mass (falling): part of the list above.
entry	SMILES	KCNQ2 inh	KCNQ2 inh baseline
28	COc1ccc(-c2cc(CNS(=O)(=O)c3ccc(NC(C)=O)cc3)on2)cc1	i	0.78
8	O=C(NCC1CCCO1)C1CCCN(S(=O)(=O)c2ccc(F)cc2)C1 (stereo not given)	i	1.28
1	COC(=O)c1ccc(NC(=O)C(C)N2C(=O)c3ccccc3C2=O)cc1 (stereo not given)	i	-0.05
3	COc1cccc(OCc2cc(/C=N/n3cncn3)ccc2OC)c1	i	0.32

# Next results follow.
entry	SMILES	KCNQ2 inh	KCNQ2 inh baseline
31	COc1ccc(/C(N)=N/OC(=O)CSc2ccccc2)cc1	i	-0.03
32	O=C(COc1ccc(Cl)cc1)OCC(=O)N1CCCc2ccccc21	i	1.56
33	O=C(Nc1cccc2c1CCCC2)c1cccc(F)c1	i	-0.18
34	Cc1ccc(NC(=O)N(Cc2ccco2)C(C)c2ccco2)cc1C (stereo not given)	-5.93*	-0.28*
35	CCN1CCN(C(=O)c2ccc(N3CC4CC(C3)c3cccc(=O)n3C4)c([N+](=O)[O-])c2)CC1 (stereo not given)	i	1.34
36	Cc1cccc(NC(=O)CCc2nnc3ccc(N4CCC(C)CC4)nn23)n1	i	0.2
37	O=C(CNS(=O)(=O)c1ccccc1)Nc1cccc([N+](=O)[O-])c1	i	0.45
38	N#Cc1cc([N+](=O)[O-])c(-n2nnc3ccccc32)c([N+](=O)[O-])c1	-5.73*	-1.1*
39	COc1cc2nc(CN(C)Cc3ccc(C(C)(C)C)cc3)[nH]c(=O)c2cc1OC	i	0.58
40	COc1cc(=O)n(C)c2cc(N(C)C)ccc12	i	0.01
41	CC1CCCC(C)N1C(=C(Cl)Cl)C(=C1SCCS1)[N+](=O)[O-] (stereo not given)	i	0.67
42	O=C(/C=C/c1ccc(F)cc1)NC(=S)N1CCOCC1	i	1.34
43	Cc1cc(O)c(NC(=O)c2ccco2)cc1C	i	-0.9
44	Cc1cc(O)c(CN(C)C)c2c1C(=O)/C(=C/c1ccco1)O2	i	11.2
45	O=C(CCc1ccc(CCC(=O)c2cccs2)s1)c1cccs1	-6.77*	-1.23*
46	C=CCN(C(=O)c1csnn1)C(C(=O)NC1CCCCC1)c1ccccc1F (stereo not given)	i	0.02
47	O=S(=O)(c1ccccc1)N(CC(O)COc1ccccc1)c1ccccc1 (stereo not given)	i	-0.13
48	C[C@@H](NC(=O)c1nc[nH]c1C(=O)N[C@@H](Cc1ccccc1)C(=O)OC(C)(C)C)c1ccccc1	i	-0.15
49	CCc1ccccc1NC(=O)c1ccc(-c2csc(C)n2)cc1	i	0.11
50	N#CSC(c1ccccc1)c1nc2ccccc2[nH]c1=O (stereo not given)	i	-0.03
51	CSc1nc2c(c(=O)n1-c1ccccc1)SCC2	i	0.57
52	COc1ccccc1N(CC(=O)N1CCCCCC1)S(C)(=O)=O	i	-0.14
53	O=C(Nc1ccccc1)c1ccc(CN2CCc3ccccc3C2)cc1	i	2.02
54	Cc1nn(CC(=O)Nc2ccc3c(c2)nc2n3CCN(C3CCCCC3)C2)c(=O)c2ccccc12	i	0.5
55	COc1ccc2c(c1OC)C(=O)N(c1ccccn1)C2	i	-0.45
56	O=C(CCc1ccccc1)NNC(=O)c1ccc(Br)cc1	i	1.26
57	CN(C(=O)CSc1nc(-c2ccccc2)cn1N)C(c1ccccc1)c1ccccc1	i	0.17
58	CCN(CC)c1ccc(C(=O)N2CCN(Cc3ccccc3)CC2)cc1	i	-1.47
59	COc1ccc(CNC(=O)COc2ccc(S(=O)(=O)N3CCCCC3)cc2Cl)cc1	i	-1.53
60	CCOC(=O)c1nc2cc3n(c(C)c-2c1C)C(C)C(CC)=C3C (stereo not given)	i	-0.02
61	COCC(=O)O[C@]1(CCN(C)CCCc2nc3ccccc3[nH]2)CCc2cc(F)ccc2[C@@H]1C(C)C	i	-1.11
62	O=C(COc1ccccc1Cl)Nc1ccc2c(c1)C(=O)NC2=O	i	0.58
63	O=C1c2cccnc2C(Nc2ccccc2)N1Cc1ccco1 (stereo not given)	i	0.12
64	COc1ccc(NC(=O)c2cc(-c3cc(C)cc(C)c3O)n[nH]2)cc1Cl	i	-1.25
65	CC(=O)c1cn(CC(=O)Nc2ccccc2C)c2ccccc12	i	-0.01
66	NCCCCNCCCN	i	-0.5
67	C[C@@H](NC(=O)C1(c2ccccc2)CCN(C(=O)OC(C)(C)C)CC1)C(=O)N[C@@H](C(=O)O)c1ccccc1	i	-1.07
68	Nc1nc(NCCCN2CCOCC2)nc(NCc2ccccc2)c1[N+](=O)[O-]	i	-0.14
69	COc1ccc(O)c(CN2CCCC(N3CCN(c4ccccc4OC)CC3)C2)c1 (stereo not given)	i	0.24
70	O=C(NS(=O)(=O)c1ccccc1[N+](=O)[O-])c1ccccc1	i	0.85
71	COc1cc(C(C(=O)NC2CCCCC2)N(C(=O)c2cnccn2)c2ccccc2)cc(OC)c1OC (stereo not given)	i	-1.05
72	COC(=O)c1cccc(NC(=O)CN2CCN(Cc3ccccc3)CC2)c1	i	-0.05
73	CC1(C)CC(CC(=O)O)C(=O)O1 (stereo not given)	i	0.06
74	CCc1ccccc1Nc1nc2ccccc2n1C	i	-0.05
75	COC(=O)C1=CN(C(C)c2ccccc2)C=C(C(=O)OC)C1c1cc(OC)c(OC)c(OC)c1 (stereo not given)	i	2.23
76	CN(C)CCCN(Cc1ccccc1)C(=S)NCc1ccccc1	i	1.11
77	O=C(CSc1nnc(-c2ccccc2)o1)c1nnc(-c2ccccc2)o1	i	-0.89
78	OC(COc1c(F)cc(Br)cc1F)CN1CCc2ccccc2C1 (stereo not given)	i	-0.03
79	COc1cc(Nc2c3c(nc4ccccc24)CCC3)cc(OC)c1OC	i	-1.07
80	COc1cccc(CNC(=S)Nc2cc(C)cc(C)c2)c1	i	-2.88

# Carrying on.
entry	SMILES	KCNQ2 inh	KCNQ2 inh baseline
81	C=CCNc1nc(C2(C)CC3(CC(C)OC3=O)C(=O)O2)cs1 (stereo not given)	i	-0.09
82	CCOc1ccc(N2C(=O)c3cccnc3C2Nc2ccc(C)cc2)cc1 (stereo not given)	i	-0.2
83	COc1ccc(C)cc1NCc1cc(=O)oc2cc(-c3ccccc3)c(O)cc12	i	-0.03
84	CCN1CCCC1CNC(=O)C(=O)NC (stereo not given)	i	0.96
85	COc1ccc(NC(=S)NCCC(c2ccccc2)c2ccccc2)c(OC)c1	i	0.94
86	O=C(CNC(=O)OCc1ccccc1)NCC(=O)N1CCCC1C(=O)OCc1ccccc1 (stereo not given)	i	0.97
87	CC(C)c1ccc(NC(=O)c2cccc(Br)c2)cc1	i	-0.05
88	c1ccc(N2CCCCC2)c(NC2=NCCC2)c1	i	-0.16
89	COCc1nnc(NC(=O)c2ccc(S(=O)(=O)N3CCCc4ccccc43)cc2)o1	i	0.05
90	CCOP(=O)(OCC)c1nc(-c2ccc(Cl)cc2)oc1NCc1ccccc1	i	2.73

# Entries of single compounds, looked up by structure.
# Results for `COC(=O)c1cccc(NC(=O)CN2CCN(Cc3ccccc3)CC2)c1` → KCNQ2 inh: i; KCNQ2 inh baseline: -0.05
# Results for `CCOc1ncccc1C(=O)OCC(=O)NCCc1ccc(OC)cc1` → KCNQ2 inh: i; KCNQ2 inh baseline: 0.02
# Results for `COC(=O)C1=CN(C(C)c2ccccc2)C=C(C(=O)OC)C1c1cc(OC)c(OC)c(OC)c1` (stereo not given) → KCNQ2 inh: i; KCNQ2 inh baseline: 2.23

# (listing goes on)
entry	SMILES	KCNQ2 inh	KCNQ2 inh baseline
91	Cc1[nH]c2ccc(C(=O)N3CCN(c4ccccn4)CC3)cc2c1C	i	-0.78
92	CC(C)(C)[C@@H]1C=C(C(=O)Nc2ccccc2)O[C@H](OCc2ccc(CO)cc2)C1	i	1.09
93	COc1cccc(NC(=S)Nc2ccc(O)cc2)c1	i	-0.43
94	O=C(N/C(=C\c1ccccc1)C(=O)N1CCCCC1)c1ccc(Br)o1	i	-0.63
95	CCN(CC)c1ccc(/C=N/NC(=O)CCC(=O)NCc2ccccc2)c(O)c1	i	0.39
96	CC1CCN(C(=S)c2cn(Cc3ccc(F)cc3)c3ccccc23)CC1	i	0.83
97	O=C(CSc1ccc(-c2cccnc2)nn1)Nc1ccc(F)c(F)c1	i	-0.54
98	CCc1ccc(/C=C2\Oc3c(ccc(O)c3CN3CCN(CCO)CC3)C2=O)cc1	i	19
99	COc1ccc(-c2nn(-c3ccccc3)cc2CN(C)CCn2ccnc2C)c(F)c1	i	1.94
100	O=C(c1cccs1)N1CCN(Cc2cccc([N+](=O)[O-])c2)CC1	i	0.14
101	O=C(CCN1C(=O)c2ccccc2S1(=O)=O)Nc1cccc(F)c1	i	1.88
102	Cc1cnc(NC(=O)CC2CCCC2)s1	i	-0.73
103	Nc1c(C(=O)Nc2ccc(Cl)cc2)sc2nc(N3CCOCC3)c3c(c12)CCCC3	i	-1.5
104	O=C(Nc1cc(C(F)(F)F)ccc1N1CCOCC1)c1cccc(F)c1	i	0.13
105	Cc1ccc(S(=O)(=O)N2CCN(CC(=O)NC3CCCc4ccccc43)CC2)cc1C (stereo not given)	-7.01*	-0.57*
106	Cc1c(C(=O)N(Cc2ccncc2)CC2CCCO2)oc2c(F)cccc12 (stereo not given)	i	0.01
107	CC(=O)N(CCC(c1ccco1)C(C)C)Cc1ccc(Cl)cc1 (stereo not given)	i	0.01
108	Cc1ccccc1N/C(SCc1ccc(Cl)cc1)=C(/C#N)C(N)=O	i	1.24
109	Cc1ccc(/C=C(\NC(=O)c2ccccc2)C(=O)NCCc2ccccn2)o1	i	-0.08
110	CCOc1cc(N2CCOCC2)c(OCC)cc1NC(C)C(=O)N1CCC(C)CC1 (stereo not given)	i	-0.78
111	COc1ccccc1-c1ccc(SCc2cccc(C)c2)nn1	-6.22*	-0.12*
112	Cc1nc(CSc2n[nH]c(=O)n2-c2ccccc2)cs1	i	1.52
113	CCC(=O)Nc1sc(Cc2ccc3c(c2)OCO3)c(C)c1C(N)=O	i	0.06
114	CCn1c(SCc2nc3ccccc3[nH]2)nnc1-c1cccs1	i	0.81
115	COc1ccc(CN2C(=O)C(Cc3ccccc3)Nc3ncnc(N4CCN(c5ccccc5)CC4)c32)cc1 (stereo not given)	i	-1.78
116	C[C@H](NC(=O)OC(C)(C)C)C(=O)N/N=C/c1cccc2nccnc12	i	3.49
117	COc1cc(/C=C2\C(=N)N3N=CSC3=NC2=O)cc(Br)c1OC(=O)c1ccco1	i	1.17
118	O=C(CCn1c(=O)oc2ccccc21)N1CCCCCC1	i	-0.06
119	CCOc1cc(/C=C/c2cccc[n+]2C)ccc1O	i	-0.52
120	COc1ccccc1/C=C/CN1CCN(Cc2ccc(C)o2)C(CCO)C1 (stereo not given)	i	1.99
